Compound activity from PubChem BioAssay.
Autofluor counter – counter-screen for toxin protease inhibitors: compound fluorescence; compound autofluorescence counterscreen, microsphere flow cytometry; hits give high values; fluorescence intensity (test concentration not listed); hit rate 3.1% among 360,000; AID 624483;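 active = at least 3 SD above the mean of all compounds, about 16000 in these data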;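 also: 100 nL of 1 mM stock went into each well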
Starred values were filed as active, the others as inactive. An excerpt; the hit share may differ from the screen's.

item	SMILES	Autofluor counter
1	Cc1cc(C)cc(-n2c3ccc(NC(=S)NC4CCCCC4)cc3c(=O)n2C)c1	3388
2	COc1ccc(S(=O)(=O)N2CCOC2CNC(=O)C(=O)NCc2ccc3c(c2)OCO3)cc1C (centres undefined)	3681
3	O=C(c1cc(C2CCCCN2S(=O)(=O)Cc2ccccc2)on1)N1CCOCC1 (centres undefined)	2915
4	Cc1ccc(CN2C(=O)c3ccccc3C2c2nnnn2C(C)C)cc1 (centres undefined)	6599
5	COc1ccc(-c2cccc(N3CCN(c4ccccn4)CC3)n2)cc1OC	2825
6	O=S1(=O)C[C@@H](N2CCN(CC3CC3)CC2)[C@H](COCc2ccccc2)N1	5370
7	O=C(CSc1ccc2c(c1)OCCO2)Nc1ccccc1	3654
8	COc1ccc(-c2ccc3[nH]c4c(c3c2)CCN2C[C@@H]([C@H](C)O)[C@@H](N(C)C(=O)Nc3cc(Cl)cc(Cl)c3)C[C@@H]42)cc1	3801
9	COCOCCn1cc(CN2CCS(=O)(=O)N(Cc3ccc(-c4ccc(Cl)nc4)cc3)C(C(C)C)C2=O)nn1 (centres undefined)	3413
10	CCCN(C(=O)CSc1nnc(-c2ccncc2)n1CCC)c1c(N)n(Cc2ccccc2)c(=O)[nH]c1=O	3851
11	O=c1cc(CN2CCN(c3ccc(Cl)c(Cl)c3)CC2)c2c(ccc3ccccc32)o1	6070
12	CCCCn1nnnc1C(c1ccccc1)N1CCC2(CC1)C(=O)NCN2c1ccccc1 (centres undefined)	5757
13	CCOC1=C2CN(S(=O)(=O)c3ccc(C)cc3)[C@@H](c3cccc4ccccc34)C[C@H]2[C@H]2C(=O)N(c3ccccc3)C(=O)[C@H]2C1	4239
14	O=c1[nH]c(=S)[nH]c2c1[C@H](C1CC1)O[C@H](CCc1ccccc1)C2	5751
15	CCc1ccc(N2CC(C(=O)N3CCN(c4ccc([N+](=O)[O-])cc4)CC3)CC2=O)cc1 (centres undefined)	3008
16	OCCNc1ncnc2c1ncn2[C@H]1CN(Cc2ccco2)C[C@@H](CO)O1	4023
17	COc1cc(CN2C[C@@H](CO)O[C@@H](n3cnc4c(NCc5ccc(F)cc5)ncnc43)C2)cc(OC)c1OC	2802
18	CC(NC(=O)c1c(N)[nH]c(C(=O)c2ccccc2)c1-c1ccccc1Br)c1cccc2ccccc12 (centres undefined)	4524
19	COc1ccc2c(c1)C(CC(C)=O)N(c1ccc(-c3cccs3)cc1)C(c1ccsc1)=C2 (centres undefined)	3905
20	CN(C)C(=O)c1cccc(-c2cnc3cccnn23)c1	3795
21	Cn1c(=O)c2c(-c3ccccc3)n(-c3cccc(O)c3)cc2n(C)c1=O	6107
22	CCOC(=O)C1(C)CCCN1C(=O)c1sccc1C (centres undefined)	3438
23	CCCN(C)C1CN(Cc2cn(Cc3cccc(C(F)(F)F)c3)nn2)S(=O)(=O)C1 (centres undefined)	4597
24	CC(=O)Nc1ccc(-c2ccnc3c2CC(C(=O)Nc2ccccc2)O3)cc1 (centres undefined)	3032
25	CCCS(=O)(=O)NC(=O)C1(C)CCN(C(=O)C2(c3ccc(Cl)cc3)CCCC2)C1 (centres undefined)	3760
26	O=C1C2CC(CN3CCCCC23)C2CCCCN12 (centres undefined)	5605
27	COc1cc2nc3n(c(=O)c2cc1OC)-c1cc2ccccc2cc1C(=O)NC3CC(C)C (centres undefined)	3888
28	CCCCCCN1CCN(C2CN(CCc3ccccc3)S(=O)(=O)C2)CC1 (centres undefined)	5361
29	O=S1(=O)N[C@H](Cc2ccccc2)COc2cccc(N3CCC[C@H]3CO)c21	6617
30	O=C(Nc1cc(C(F)(F)F)cc(C(F)(F)F)c1)O[C@@H]1c2ccccc2[C@@H]2Cc3csc[n+]3[C@H]12	5865

Two of the compounds above, as labelled records:
#28 CCCCCCN1CCN(C2CN(CCc3ccccc3)S(=O)(=O)C2)CC1 (centres undefined)
  Autofluor counter: 5361
#24 CC(=O)Nc1ccc(-c2ccnc3c2CC(C(=O)Nc2ccccc2)O3)cc1 (centres undefined)
  Autofluor counter: 3032

(next part)
item	SMILES	Autofluor counter
31	CC(=O)c1cc2cccc(OC3(C)CCN(Cc4ccc5ccccc5c4)C3)c2o1 (centres undefined)	3946
32	CC(C)c1ccc(CC(=O)N2CCC2(C)C(=O)NCCC#N)cc1 (centres undefined)	3568
33	O=c1cc(CN2CCCCC2)c2ccccc2o1	5487
34	COc1ccc(-c2ccc(CN3C(C(C)C)C(=O)N(Cc4cn(CC5CCCCC5)nn4)CCS3(=O)=O)cc2)cc1OC (centres undefined)	3748
35	Cc1ccc(C(O)c2ncc(-c3ccc4ccccc4c3)[nH]2)cc1 (centres undefined)	3419
36	CCCCn1nc(C(=O)NC2CCCCC2)c2ccccc2c1=O	2849
37	Cc1ccc(CN(C)C[C@@H]2OCc3cnnn3CCCC(=O)N([C@@H](C)CO)C[C@H]2C)cc1	3539
38	Nc1nc(=O)n(C2OC(CO)C(O)C2O)cc1F (centres undefined)	5886
39	C[C@H]1CN([C@@H](C)CO)C(=O)CCCn2cc(nn2)CO[C@@H]1CN(C)C(=O)Nc1cccc(Oc2ccccn2)c1	2861
40	Cc1ccc(S(=O)(=O)N2Cc3ccccc3CC2C(N)=O)cc1 (centres undefined)	3570
41	O=C(NCCCN1CCOCC1)C(=O)NCC1OCCN1S(=O)(=O)c1ccc(Cl)cc1 (centres undefined)	2845
42	Cc1ccc([C@H]2N[C@]3(CCCN(Cc4ccc(Br)cc4)C3=O)[C@H]3C(=O)N(Cc4ccccc4)C(=O)[C@@H]23)cc1	3968
43	CCc1nc2c(OCc3ccccc3C)cccn2c1N(C)C(=O)CC(C)C	4156
44	CCCC(=O)Nc1c(-c2ccccc2)[nH][nH]c1=O	6413
45	CC1(C)CC(=O)C=C(c2n[nH]nc2C2=CCCCC2)C1	3395
46	COc1ccccc1C(=O)N1CCN(C(=O)[C@H]2O[C@@H](n3cnc4c(N)ncnc43)[C@H](O)[C@@H]2O)CC1	5960
47	CC(C)c1ccc(NC(=O)C2(C)Cc3c(-c4ccc(N(C)C)cc4)ccnc3O2)cc1 (centres undefined)	3473
48	C[C@@H]1CN([C@H](C)CO)C(=O)CCCn2nncc2CO[C@@H]1CN(C)C(=O)OCc1ccccc1	3004
49	COc1ccc(CNC(=O)c2sc(=O)n(Cc3ccc(C)cc3)c2C)cc1	4140
50	COc1ccc(NC(=O)N(C)C[C@H]2OCc3cnnn3CCCC(=O)N([C@@H](C)CO)C[C@H]2C)cc1	3563
51	COc1cccc(NC(=O)N(C)C[C@H]2Oc3ncc(Br)cc3C(=O)N([C@H](C)CO)C[C@H]2C)c1	3729
52	CC1(C)OC(=O)C2=C(C[C@@H](C3CCCCC3)O[C@H]2c2ccc(F)cc2)O1	4265
53	O=C(O)Cn1ccc2cc(S(=O)(=O)N3CCCCC3)ccc21	2881
54	Cc1cnc(C)c(Nc2nc(C(N)c3ccccc3)cs2)n1 (centres undefined)	4011
55	Cc1ccc(OCCCN2CCC(C(O)(c3ccccc3)c3ccccc3)CC2)cc1	4632
56	COc1ccc(-c2cnc3c(c2)C(=O)N([C@H](C)CO)C[C@H](C)[C@H](CN(C)C(=O)Cc2cccnc2)O3)cc1	3024
57	CCOC1=C2CN(S(=O)(=O)c3ccc(C)cc3)[C@H](c3cccs3)C[C@H]2n2c(=O)n(-c3ccccc3)c(=O)n2C1	5995
58	Cc1cccc(CNC(=O)C2CCC(=O)N(CCCc3ccccc3)C2)c1 (centres undefined)	3951
59	CC(=O)Nc1cc(-c2cccc(C(=O)N(C)C)c2)cn2c(-c3cccc(C(F)(F)F)c3)cnc12	2830
60	COc1ccc(NC(=O)N(C)C[C@@H]2Oc3cc(Br)ccc3S(=O)(=O)N([C@H](C)CO)C[C@H]2C)cc1	4549

Single values from the entries so far:
compound 53 – Autofluor counter: 2881
compound 49 – Autofluor counter: 4140

(next part)
item	SMILES	Autofluor counter
61	CSc1ccccc1OCc1cc(C(=O)NCC(C)Oc2cccnc2)no1 (centres undefined)	3841
62	CC(=O)OC[C@]12CC[C@H]3[C@@](C)(CC[C@H]4C(C)(C)CCC[C@]34C)[C@@H]1CC(C1=CC(=O)OC1O)O2 (some centres undefined)	4742
63	COc1ccc(-c2c(Sc3ccccc3)c3cc(-c4ccc5c(c4)OCO5)ccc3n2C)cc1	5387
64	CC1(Cc2cccc(C(N)=O)c2)C(=O)Nc2c(Cl)cccc21 (centres undefined)	3674
65	CC(=O)c1ccc(S(=O)(=O)NCCOc2ccccc2)cc1	4132
66	OC(c1ccc(CN2CCCCC2)cc1)c1ncc(-c2ccccc2F)[nH]1 (centres undefined)	3495
67	CC(C)c1ccc(NC(=O)C2(C)Cc3c(-c4cccc(C(F)(F)F)c4)ccnc3O2)cc1 (centres undefined)	4143
68	CC(C)(C)OC(=O)N1CCCN(C(c2cc3ccccc3o2)c2nnnn2C(C)(C)C)CC1 (centres undefined)	5282
69	C[C@H]1Cn2cnc(C(=O)Nc3ccccc3)c2C(=O)N1	3568
70	CC1(C(=O)NS(C)(=O)=O)CCN1C(=O)C/C=C/c1ccccc1 (centres undefined)	3698
71	CCOC(=O)c1oc2ccccc2c1COC(=O)CNC(=O)c1ccccc1F	3856
72	COc1ccc(Cl)cc1-c1cc(C(=O)NCc2cc(C(F)(F)F)cc(C(F)(F)F)c2)[nH]n1	3584
73	COc1cccc(C(NC(C)=O)c2nc(-c3ccc(F)cc3OC)cs2)c1 (centres undefined)	4051
74	CC1(C(=O)Nc2ccc(Cl)c(Cl)c2)CCN1C(=O)Cc1ccc(-c2ccccc2)cc1 (centres undefined)	4110
75	CCCCCCn1c(=O)n2n(c1=O)C[C@]1(OC(=O)NC3CCCC3)CN(S(=O)(=O)c3ccc(C)cc3)C[C@]1(O)C2	3121
76	O=C(NCC1CCCCC1)c1csc([C@@H]2O[C@H](CO)[C@H](O)[C@H](O)[C@H]2O)n1	3751
77	CCNC(=O)C1(C)CCCN(Cc2ccc(Oc3ccccc3)cc2)C1 (centres undefined)	4015
78	CC1(C(=O)NCc2ccccc2Br)CCN1C(=O)Cc1ccc(-c2ccccc2)cc1 (centres undefined)	2959
79	CCNC(=O)C1(C)CCN(C(=O)c2ccc3c(c2)CCO3)C1 (centres undefined)	3772
80	CC(=O)Nc1cccc(-c2cccc3nccn23)c1	3463
81	CC(=O)NC(c1ccccc1)c1nc(-c2ccccc2)cs1 (centres undefined)	3805
82	COc1ccc(OC)c2c1C(=O)CC2C (centres undefined)	3690
83	O=C(CCNC(=O)C1CCN(S(=O)(=O)c2ccc(F)cc2)CC1)NCc1ccccn1	3668
84	COc1ccc(-c2ccc(SCC(=O)NC3CCCC3)nn2)cc1	3757
85	CC(C)C[C@@H]1Cc2[nH][nH]c(=O)c2[C@H](C(C)C)O1	6095
86	CCOC1=C2[C@@H](CN(S(=O)(=O)c3ccc(C)cc3)[C@H]2c2ccc(CC)cc2)[C@H]2C(=O)N(C)C(=O)[C@H]2C1	6136
87	CCCCNC(=O)C1(C)CCN1C(=O)c1ccc2sccc2c1 (centres undefined)	3998
88	Cc1cc(Br)cn2c(Cc3ccccc3C(F)(F)F)c(-c3ccccc3)nc12	7025
89	CN(C)CCNc1ncnc2c1ncn2[C@H]1CN(Cc2ccc(F)cc2)C[C@@H](CO)O1	3841
90	CSc1ccc(CN2CCC2(C)C(=O)NCc2ccc3c(c2)OCO3)cc1 (centres undefined)	3951
91	CC(=O)NC(=Cc1ccccc1)C(=O)N1CCCC1C(=O)O (centres undefined)	3506
92	CC(O)(c1cccc(F)c1)c1nc(-c2cccc(F)c2)cs1 (centres undefined)	2890
93	CC1C(=O)N(Cc2cn(CC3CCCCC3)nn2)CCS(=O)(=O)N1Cc1ccc(-c2cccc(N(C)C)c2)cc1 (centres undefined)	3621
94	CCc1nc2ccc(C(=O)Nc3cccc(OCC(=O)N(C)C)c3)cn2c1N(CC)CCOC	3114
95	CCc1nc2c(OCC3CCCCC3)cccn2c1N(C)C(=O)c1ccccc1F	3974
96	CN1CCN(c2ccc(CNC(=O)C3Cc4c(-c5cccc(F)c5)ccnc4O3)cc2)CC1 (centres undefined)	3681
97	Cn1c(=O)c2cc(NC(=S)NC3CC3)ccc2n1Cc1cccc(C(F)(F)F)c1	2987
98	O=C(NCc1ccco1)c1ccc(OC2CCN(Cc3ccccn3)CC2)cc1	3905
99	Cc1ccc(C)c(NC(=O)COC(=O)c2ccc(S(=O)(=O)N3CCCC3)cc2)c1	2997
100	CCSCC(C)(C)n1[nH]c2ccccc2c1=O	3617
101	CNc1ncnc2c1ncn2[C@H]1CN(Cc2ccc(-c3ccccc3)cc2)C[C@@H](CO)O1	3587
102	CC1(C(=O)NCc2cccc(Cl)c2)Cc2c(-c3ccc(C(N)=O)cc3)ccnc2O1 (centres undefined)	3662
103	CCCCN1C(=O)C(CC(=O)NC(c2ccccc2)c2ccccc2)CC(C(=O)N(C)C)=C1C (centres undefined)	2984
104	COc1ccc([C@H]2CN(c3ccc(OC)cc3)C(=O)[C@@H]2CC(=O)Nc2ccc(Br)cc2)cc1	3660
105	Cc1ccc(-c2nc3c(C)cc(Br)cn3c2Cc2ccccc2)cc1	4959
106	O=C(NCc1ccc(Cl)c(Cl)c1)c1cc(C2CCCCN2C(=O)CCc2ccccc2)on1 (centres undefined)	3993

Shown field by field: part of the list above
86) CCOC1=C2[C@@H](CN(S(=O)(=O)c3ccc(C)cc3)[C@H]2c2ccc(CC)cc2)[C@H]2C(=O)N(C)C(=O)[C@H]2C1
  Autofluor counter = 6136
87) CCCCNC(=O)C1(C)CCN1C(=O)c1ccc2sccc2c1 (centres undefined)
  Autofluor counter = 3998

In a second layout: entries from further up.
(92) CC(O)(c1cccc(F)c1)c1nc(-c2cccc(F)c2)cs1 (centres undefined)
- Autofluor counter: 2890
(95) CCc1nc2c(OCC3CCCCC3)cccn2c1N(C)C(=O)c1ccccc1F
- Autofluor counter: 3974
